# Compound activity deposited in PubChem by National Center for Advancing Translational Sciences (NCATS).
# VDR inh – inhibitors of human vitamin D receptor; P11473; VDR-SRC2-3 peptide fluorescence polarization, 2 h; Potency, µM, without a hit: max response, negative = inhibition, most hits filed as inhibitors; 400,000 tested, 0.93% active; AID 504847; active = well fitted inhibition curve with a large enough effect; note: series mostly up to about 120 µM
# Target sequence (P11473 whole entry, looked up): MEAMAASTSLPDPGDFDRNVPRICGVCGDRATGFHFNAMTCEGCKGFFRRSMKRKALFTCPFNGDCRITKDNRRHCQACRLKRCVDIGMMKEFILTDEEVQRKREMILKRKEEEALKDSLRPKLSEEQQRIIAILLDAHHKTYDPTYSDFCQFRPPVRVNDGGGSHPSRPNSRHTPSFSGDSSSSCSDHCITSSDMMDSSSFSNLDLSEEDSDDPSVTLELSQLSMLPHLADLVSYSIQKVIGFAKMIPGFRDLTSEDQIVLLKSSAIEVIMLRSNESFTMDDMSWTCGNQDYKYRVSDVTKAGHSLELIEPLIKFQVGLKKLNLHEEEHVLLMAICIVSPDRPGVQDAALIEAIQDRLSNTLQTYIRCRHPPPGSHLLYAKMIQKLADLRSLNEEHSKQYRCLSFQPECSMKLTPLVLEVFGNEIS
#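 Fluorescence polarization assay measuring small-molecule disruption of VDR binding to the coregulator peptide SRC2-3. Compounds were pin-transferred (23 nl) into the reagent mix and incubated 2 h at room temperature before reading.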
# Numbers without * were called inactive; & = joins results of further samples; [ ] = remark or other dose. % is set by controls: 0 for no effect and ±100 for the full control effect; potency is the fitted concentration of half-maximal effect. The list is partial; rates above refer to the full screens.
No.	VDR inh	Compound
1	-9.2%	Cc1c(CN2CCN(CC(C)(C)C)C(CCO)C2)[nH]c2ccccc12 (configuration not stated)
2	0.6%&7.3%	COc1ccc2cc1Oc1ccc(cc1)C[C@H]1c3c(cc4c(c3Oc3cc5c(cc3OC)CCN(C)[C@@H]5C2)OCO4)CCN1C
3	-18.2%	COC(=O)c1c(-c2ccc(F)cc2)csc1NC(=O)C1CCCO1 (configuration not stated)
4	-16.9%	Brc1ccccc1/C=N/N1CCCCC1
5	-5.9%	Cc1cccc(NC(=O)c2cccs2)n1
6	-20.5%	CCOc1ccccc1C(=O)NCC(=O)N(C)Cc1ccccc1C
7	2.8%	Cc1nc2cc(N3CCN(C)CC3)c(NC(=O)Cc3ccccc3)cc2c(=O)n1Cc1ccccc1
8	-7.7%	COc1ccc(CCn2c(=O)c3cccnc3n(CC(=O)Nc3c(C)cccc3C)c2=O)cc1OC

No.	VDR inh	Compound
9	12.8%	CC(=O)Nc1ccc(S(=O)(=O)N=S(C)(C)=O)cc1
10	2.0%	CCOc1ccc(OCC)c(NC(=O)CCc2c(C)nc3c(c2C)c(=O)n(C)c(=O)n3C)c1
11	-4.2%	Cc1ccc(CCNC(=O)c2ccc(CS(=O)(=O)c3ccccc3C)o2)cc1
12	-19.0%	CCCc1nnc(NC(=O)C2CCN(C(=O)c3ccco3)CC2)s1
13	-12.4%	CCOC(=O)N1CCN(CC(O)COCCC23CC4CC(CC(C4)C2)C3)CC1 (configuration not stated)
14	-3.2%	O=C(COc1cccc(Br)c1)Nc1ccc(N2CCOCC2)cc1N1CCOCC1
15	6.3%	Cc1ccc(S(=O)(=O)c2cccc(S(=O)(=O)N3CCOCC3)c2)cc1S(=O)(=O)N1CCOCC1
16	-7.3%	CCC(C)NC(=O)COC(=O)c1csc2c1CCCC2 (configuration not stated)

No.	VDR inh	Compound
17	2.6%	COc1ccc(/C(O)=C2\C(=O)C(=O)N(Cc3ccco3)C2c2ccc(OC)cc2OC)cc1 (configuration not stated)
18	-12.5%	COc1ccc(OC)c2c1sc(=NC(=O)C(C)(C)C)n2C
19	-1.1%	O=C(CN1CCN(c2ccccc2)CC1)Nc1ccc(-n2cnnn2)cc1
20	-21.0%	COC(=O)c1sc(NC(C)=O)c(C(=O)OC)c1C
21	19.7%	COc1ccc(-n2nc(C(=O)NCC(=O)NCc3ccc(F)cc3)c3ccccc3c2=O)cc1OC
22	18.5%	CCOc1ccc(N(C)S(=O)(=O)c2ccc3[nH]cc(C(=O)NCc4ccccc4)c(=O)c3c2)cc1
23	-0.1%	O=C(NNC(=S)Nc1cccc(Cl)c1)c1ccccc1
24	9.1%	Cc1sc2ncnc(N3CCN(S(=O)(=O)c4ccc(F)cc4)CC3)c2c1C

No.	VDR inh	Compound
25	-7.5%	CCOc1ccccc1CN1CCCC(C(=O)Nc2cccc(-n3cccn3)c2)C1 (configuration not stated)
26	36.6%[activator]	COCCNc1nnc(Cc2ccc(Cl)cc2)c(=O)[nH]1
27	24.0%	CC1=C(C(=O)N2CCOCC2)C(c2c(F)cccc2F)NC(=O)N1 (configuration not stated)
28	21.6%	O=Cc1ccccc1Oc1nc(N2CCOCC2)nc(N2CCOCC2)n1
29	-9.2%	CN1C(=O)N(CC(=O)Nc2cccc(S(=O)(=O)N(C)c3ccccc3)c2)C(=O)C12CCCCC2
30	7.6%	COc1cccc(C(=O)NCC2CCCN2S(=O)(=O)c2ccccc2)c1 (configuration not stated)
31	-14.3%	O=C(CN1CCCCC1)Nc1cccc(Cl)c1Cl
32	-12.3%	[O-]C1=N/[N+](=C/c2ccccc2)CC1

# Look-ups from the list:
# [O-]C1=N/[N+](=C/c2ccccc2)CC1 | VDR inh: -12.3%
# CCOc1ccccc1CN1CCCC(C(=O)Nc2cccc(-n3cccn3)c2)C1 (configuration not stated) | VDR inh: -7.5%
# O=Cc1ccccc1Oc1nc(N2CCOCC2)nc(N2CCOCC2)n1 | VDR inh: 21.6%
# COCCNc1nnc(Cc2ccc(Cl)cc2)c(=O)[nH]1 | VDR inh: 36.6%[activator]
# O=C(CN1CCCCC1)Nc1cccc(Cl)c1Cl | VDR inh: -14.3%
# CC1=C(C(=O)N2CCOCC2)C(c2c(F)cccc2F)NC(=O)N1 (configuration not stated) | VDR inh: 24.0%

# (cont.)
No.	VDR inh	Compound
33	18.8%	Nc1nc(N)nc(-c2cc(O)ccc2O)n1
34	-20.3%	CCC(=O)c1ccc(OCC(O)CNC2CCCC2)cc1 (configuration not stated)
35	-2.8%	CCN(CC)CCNc1nc(SC)nc2sc3c(c12)CCN(C)C3
36	18.4%	CCCCN=CC1=C(O)CC(c2ccccc2)CC1=O (configuration not stated)
37	-0.1%	O=C1NC(c2ccccc2)(C(F)(F)F)C(=O)N1Cc1cccnc1 (configuration not stated)
38	-12.2%	COC(=O)c1ccc(NC(=O)CNC(=O)C2CCCCC2)cc1
39	7.1%	O=C(NC1CCCC1)c1ccc(CS(=O)(=O)Cc2ccccc2Cl)o1
40	-0.6%	COc1ccc(OC)c(NC(=O)CSc2nnc(CNC(=O)COc3ccc(Cl)cc3)o2)c1

No.	VDR inh	Compound
41	-15.5%	CCc1ccc(N(CC(=O)NC2CCCCC2)S(=O)(=O)c2c(C)noc2C)cc1
42	0.0%	CS(=O)(=O)N(CC(=O)N1CCOCC1)c1ccc2c3c(cccc13)CC2
43	-4.1%	Cc1ccc(S(=O)(=O)N(C)C)cc1NC(=O)C(C)N(C)Cc1sccc1C (configuration not stated)
44	12.3%	CCOc1ccc(NC(=S)N2CCN(C/C=C/c3ccccc3)CC2)cc1
45	-6.7%	CC1CCc2nc(N)c(C#N)c(-c3cccnc3)c2C1 (configuration not stated)
46	-4.1%	CN(Cc1ccccc1)Cc1c(F)cccc1F
47	-4.3%	CCc1nnc(NC(=O)c2cccc(S(=O)(=O)N3CCCCC3)c2)s1
48	-24.8%	CNc1cc([N+](=O)[O-])ccc1N/C=C/C(=O)c1ccc2c(c1)OCO2

No.	VDR inh	Compound
49	6.8%	CN(NC(=O)c1c(Cl)cccc1Cl)c1cccc(Cl)n1
50	5.2%	COc1cc(CCC(=O)OCC(=O)N2CC(=O)Nc3ccccc32)cc(OC)c1OC
51	-11.4%	CCc1cc2ccc(C)c(C)c2nc1SCC(=O)Nc1cc(C)on1
52	6.1%	CN(C)CCNC(=O)C(=O)NCC(c1cccnc1)N1CCN(c2ccccc2)CC1 (configuration not stated)
53	10.9%	COc1ccc(S(=O)(=O)N2CCCCC2)cc1NC(=O)c1cccc(S(=O)(=O)N2CC(C)OC(C)C2)c1 (configuration not stated)
54	-7.4%	COc1ccccc1N1CC(C(=O)Nc2ccc(C)c(S(=O)(=O)N3CCOCC3)c2)CC1=O (configuration not stated)
55	-3.5%	CCOC(=O)C[C@H]1c2cc(F)ccc2S(=O)(=O)N1c1ccccc1
56	7.3%	O=C(Nc1cc(Sc2nc3ccccc3s2)cc([N+](=O)[O-])c1)c1cccc(F)c1F

# Quoted at random: two compounds from above, in no set order.
No.	VDR inh	Compound
13	-12.4%	CCOC(=O)N1CCN(CC(O)COCCC23CC4CC(CC(C4)C2)C3)CC1 (configuration not stated)
16	-7.3%	CCC(C)NC(=O)COC(=O)c1csc2c1CCCC2 (configuration not stated)

# Other records follow.
No.	VDR inh	Compound
57	41.2%[activator]	O=C(NCCCN1CCOCC1)c1ccc(Cl)s1
58	5.5%	Cc1nc(SCc2nc3ccc(C(=O)c4ccccc4)cc3[nH]2)c2oc3ccccc3c2n1
59	-1.0%	CC[C@@H]1[C@H]2CCCC(=O)N3CC[C@@H](C[C@@H]1Nc1ccccc1)[C@@H]23
60	-0.1%	CC(C)=CCC/C(C)=C/CNC(=O)C[C@H]1C[C@H](C(=O)N2CCOCC2)[C@@]2(C)c3[nH]c4cc(CCC(=O)N(C)C)ccc4c3CCN2C1=O
61	-5.5%	COc1ccccc1NC(=O)c1ccc(-n2cccn2)c([N+](=O)[O-])c1
62	-17.5%&3.0%&-0.4%	C=CC[C@@H]1/C=C(\C)C[C@H](C)C[C@H](OC)[C@H]2O[C@@](O)(C(=O)C(=O)N3CCCC[C@H]3C(=O)O[C@H](/C(C)=C/[C@@H]3CC[C@@H](O)[C@H](OC)C3)[C@H](C)[C@@H](O)CC1=O)[C@H](C)C[C@@H]2OC
63	-16.6%	O=C(NC1CCN(Cc2ccccc2)CC1)c1ccccc1OCc1ccccc1
64	3.7%	CCn1c(SCC(=O)NCc2ccc3c(c2)OCO3)nnc1-c1ccncc1

No.	VDR inh	Compound
65	26.9%	COc1ccc(-n2c(=O)c3c4c(sc3n(CC(=O)Nc3cc(C)[nH]n3)c2=O)CCCC4)c(OC)c1
66	-4.1%	C=CCOc1cccc(CNCc2ccncc2)c1
67	20.8%	CCCn1ncc(CN2CCN(CCc3ccccc3)C(CCO)C2)c1C (configuration not stated)
68	2.2%&10.0%	COc1ccc(CCNC(=O)C2CC(=O)N(CCc3ccccc3)C2)cc1OC (configuration not stated)
69	8.4%	CCN1CCN(c2cc(C)c3cc(NC(=S)NCCN(C)C)ccc3n2)CC1
70	1.4%	CCOc1ccc(NC(=O)c2cc(S(=O)(=O)N3CCCCCC3)cn2C)cc1
71	5.4%	CCCN1CCN(CCCNC(=O)c2ccc3c(=O)n(CCc4ccccc4)c(=O)[nH]c3c2)CC1
72	-6.5%	COC(=O)c1c(NC(=O)Cc2ccccc2)sc2c1CC(C)(C)NC2(C)C

No.	VDR inh	Compound
73	-4.1%	COc1ccc2c(c1)c(C(C)=O)c(C)n2CCc1ccccc1
74	-11.1%	CC(=O)Nc1c2c(nn1-c1ccc(C)cc1)CSC2
75	-1.8%	CCCNS(=O)(=O)c1ccc(OCC(=O)NCc2ccco2)cc1
76	-4.4%	O=C(CCCc1nc2ccccc2s1)N1CCN(c2ccccc2F)CC1
77	5.6%	CCOc1ccc(-n2c(SCC(=O)N3CCCCC3)nc3c([nH]c4ccccc43)c2=O)cc1
78	5.8%	COc1ccccc1NS(=O)(=O)c1ccc(C(=O)N2CCN(c3ccccn3)CC2)cc1
79	-19.1%	COc1cccc(N(CC(=O)NCC2CCCO2)C(=O)CCC(=O)Nc2nccs2)c1 (configuration not stated)
80	15.1%	O=C(NCCCCNC(=O)c1cccnc1)c1cccnc1

# Of the compounds above, 7 contain an aryl thioether with sulfur outside any ring.
No.	VDR inh	Compound
35	-2.8%	CCN(CC)CCNc1nc(SC)nc2sc3c(c12)CCN(C)C3
40	-0.6%	COc1ccc(OC)c(NC(=O)CSc2nnc(CNC(=O)COc3ccc(Cl)cc3)o2)c1
51	-11.4%	CCc1cc2ccc(C)c(C)c2nc1SCC(=O)Nc1cc(C)on1
56	7.3%	O=C(Nc1cc(Sc2nc3ccccc3s2)cc([N+](=O)[O-])c1)c1cccc(F)c1F
58	5.5%	Cc1nc(SCc2nc3ccc(C(=O)c4ccccc4)cc3[nH]2)c2oc3ccccc3c2n1
64	3.7%	CCn1c(SCC(=O)NCc2ccc3c(c2)OCO3)nnc1-c1ccncc1
77	5.6%	CCOc1ccc(-n2c(SCC(=O)N3CCCCC3)nc3c([nH]c4ccccc43)c2=O)cc1

# New compounds follow.
No.	VDR inh	Compound
81	5.6%	Cc1ccc(S(=O)(=O)/N=C(/Nc2nc(C)cc(C)n2)N2CCOCC2)cc1
82	8.5%	COc1ccc(OC)c(S(=O)(=O)N2CCC(C(=O)N3CCN(c4ccc(F)cc4)CC3)CC2)c1
83	-6.5%	Cc1ccc(OCc2nnc(SCC(=O)NC3CCCCC3)n2C)cc1
84	6.4%	COc1ccc(S(=O)(=O)NCCc2nnc3ccc(SCC(=O)Nc4ccc(C(F)(F)F)cc4)nn23)cc1
85	19.9%	COc1ccc(N2CC(C(=O)NCCc3ccc(OC)c(OC)c3)CC2=O)cc1 (configuration not stated)
86	-7.6%	OC(CCN1CCCCC1)(c1ccccc1)C1CC2C=CC1C2 (configuration not stated)
87	-5.1%	COc1ccc(-n2c(=O)c3sc4ccccc4c3n(CC(=O)NCc3ccccc3)c2=O)cc1
88	-1.5%	COc1ccc(C2NC(=O)NC(C)=C2C(=O)OCC2CCCCC2)cc1OC (configuration not stated)

No.	VDR inh	Compound
89	6.9%	O=C(CSc1nc(-c2ccccc2)cc(=O)[nH]1)NCc1ccc2c(c1)OCO2
90	-3.0%	CCOC(=O)c1sc(NC(=O)c2nc(SC)ncc2Cl)c(C(=O)OCC)c1C
91	-12.5%	CSc1nnnn1-c1ccc(C)c(Cl)c1
92	-6.2%	Clc1ccc(-c2nnc(-c3ccccc3)o2)cn1
93	-6.5%	Cc1cc2c(SCC(=O)NCC3CCCO3)ncnc2s1 (configuration not stated)
94	-7.7%	C=CCSc1nc2c(c(=O)[nH]1)C(C(C)C)C(C#N)=C(N)O2 (configuration not stated)
95	-3.2%	Cc1n[nH]c(=O)nc1N/N=C/c1cccs1
96	-15.8%	COc1cccc(/C=C/c2nc3c(cnn3-c3ccccc3)c(=O)[nH]2)c1
97	-11.6%	CC1=CC(c2ccc(Cl)cc2)n2nc(NC(=O)CCCC(=O)O)nc2N1 (configuration not stated)
98	-7.4%	Cc1ccc(C(=O)N(CC(=O)NC2CCCC2)c2ccccc2Cl)s1

# Sorted by value in VDR inh (rising): 5 from the list above
No.	VDR inh	Compound
91	-12.5%	CSc1nnnn1-c1ccc(C)c(Cl)c1
94	-7.7%	C=CCSc1nc2c(c(=O)[nH]1)C(C(C)C)C(C#N)=C(N)O2 (configuration not stated)
93	-6.5%	Cc1cc2c(SCC(=O)NCC3CCCO3)ncnc2s1 (configuration not stated)
92	-6.2%	Clc1ccc(-c2nnc(-c3ccccc3)o2)cn1
89	6.9%	O=C(CSc1nc(-c2ccccc2)cc(=O)[nH]1)NCc1ccc2c(c1)OCO2
